Screening data (PubChem BioAssay)
Sa RN4220 lethal: growth inhibition of S. aureus RN4220, primary screen, OD600. AID 1259311, 2017. 16 h. inhibition, % (test concentration not listed). 330,000 compounds, 0.33% hits;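 active means z-score of -3 or lower and OD600 up to 0.18 on both plates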;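 further: plate controls were untreated cells for no effect and reference antibiotic for full effect; stock transfer was 100 nL into about 80 µL; one replicate is shown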
Autofluor counter: compound fluorescence in toxin protease inhibitor counterscreen. compound autofluorescence counterscreen, microsphere flow cytometry; active compounds read high. AID 624483. 360,000 compounds, 3.1% hits. fluorescence intensity (concentration not given with the values);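 active means at least 3 SD above the mean of all compounds, about 16000 in these data; inconclusive means too few beads counted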;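 further: 100 nL of 1 mM stock went into each well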
ugtP null kill: growth inhibition of ugtP-null S. aureus, primary screen, RN4220 ugtP deletion, OD600 | 330,000 compounds, 0.54% hits | AID 1259309, 2017 | 16 h; some inactives read as strong as hits | growth inhibition, % (no concentration beside the values);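 active means z-score under -3 and OD600 up to 0.15 on both plates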;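 further: plate controls were untreated wells for no effect and antibiotic for full effect; wells of about 80 µL received 100 nL stock; the first replicate is given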
PrP 5UTR inh: inhibition of PrP 5' UTR reporter expression. cell-based PrP 5' UTR mRNA reporter, plate reader. inhibition, % (test concentration not listed). 340,000 compounds, 0.35% hits;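 active means every replicate at 50% or more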;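 further: 0 = median of the neutral control wells; tested in H4 reporter cells; numbers are from one replicate; inactives centre near -14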
BJeLR lethal: MLPCN primary cell-based screen for lethality selective to Ras in HRASV12 cells. BJeLR (HRASV12) viability, CellTiter-Glo ATP luminescence, 48 h; reference of the scale not given here. inhibition, % (concentration not given with the values). 300,000 compounds, 0.17% hits;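 active means replicate mean above 50%; inconclusive means above 50% but judged a plate artefact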;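 further: 50 nL library stock added to about 25 µL; numbers are from one replicate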
Mtb hypoxia rep: PubChem AID 1159583 | M. tuberculosis hypoxia-regulated fluorescent reporter, fluorescence | fluorescence inhibition, % (concentration not given with the values) | 300,000 compounds, 0.1% hits;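 active means 35 to 45% if threefold the growth effect, above 45% if 1.5-fold the growth effect; inactive means the rest, general growth blockers included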;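 further: wells of about 50 µL received 100 nL stock; 0% = vehicle wells and 100% = reference inhibitor wells; whole bacteria with a GFP reporter of the hypoxia response; strong numbers were not always called active; many hits fall short of the cut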
Mtb hypoxia rep growth: further read-out of Mtb hypoxia rep, marked with its call; growth inhibition, %; measured here: M. tuberculosis growth (absorbance);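 0% = vehicle and 100% = reference antibiotic; read after six days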
Starred values were filed as active, the others as inactive; ? = inconclusive; . = no result given; & = joins results of further samples.

SMILES	Sa RN4220 lethal	Autofluor counter	ugtP null kill	PrP 5UTR inh	BJeLR lethal	Mtb hypoxia rep	Mtb hypoxia rep growth
Cc1cc(O)c(C(=O)/C=C/c2ccccc2)c(=O)o1	18	4096	19	-13	-3	24	17
Cc1cccc(-n2ncc3c(N(C)C4CCCCC4)ncnc32)c1	-2.1	5619	13	78*	1	6	8
CCOC(=O)/C(N)=C/c1ncc(C(F)(F)F)cc1Cl	0.3	2463	14	-17	-4	.	.
CCCCC(=O)Nc1ccc(C(=O)NNC(=O)CCCOc2ccc(Cl)cc2Cl)cc1	.	9730	.	-11	7	.	.
COc1cccc(C(=O)NC2CCN(CC(=O)Nc3ccccc3Cl)CC2)c1	1.4	4063	0	0	0	9	0
CC(C)c1cccc(C(C)C)c1O	14	5489	4	-10	-7	-2	1
NC(=O)c1c(NC(=O)c2ccccc2)sc2c1CCCC2	0.8	3439	3	-77	-4	-9	2
Cc1cc(C(F)(F)F)c2c(N)c(C(=O)NC3CC3)sc2n1	1.9	5138	-1	0	1	-1	4
CSCCC(NC(=O)c1ccc([N+](=O)[O-])cc1Cl)C(=O)OC1CCCCC1=O (stereo not drawn)	6.9	5473	3	-34	-1	9	4
N#CC(=NNc1ccc(F)cc1)C(=N)N1CCCCC1	4.5	.	-3	.	.	8	15
O=C(CCc1ccc(S(=O)(=O)N2CCOCC2)cc1)OCC(=O)c1ccc(Br)cc1	3.7	.	-1	-14	.	11	-1
CCN(CC(=O)Nc1c(F)cccc1F)C(=O)c1csc2c1CCCC2	0.1	6299	1	-2	-10	4	17
COc1ccc(NC(=O)C(=O)NCCCn2ccnc2)cc1	4.2	4287	2	-31	-3	5	-1
Nn1c(SCC(=O)Nc2nccs2)nnc1-c1ccco1	2.7	6067	3	-19	.	1	0
Cc1ccc(NC(=O)CN2CCCC2c2cccs2)cc1S(=O)(=O)N1CCCCC1 (stereo not drawn)	-1.3	4631	10	-35	.	8	1
Cc1cccc(NC(=O)c2ccc(C)c(S(=O)(=O)N3CCCCC3)c2)n1	3.8	6453	-3	-34	-7	11	1
O=C(Cc1cc(=O)[nH][nH]1)NN=Cc1c(Cl)cccc1Cl	3.5&3.0	.	-2&-6	.	.	6	9
CCN(c1cccc(C)c1)S(=O)(=O)c1ccc2c(c1)N(C(C)=O)CCS2	9.4	6355	11	2	5	14	4
COc1ccc(-c2ccc3oc(-c4ccc(OC)cc4)c(C#CCO)c3c2)cc1	1.7	3887	5	16	25	-1	-13
Cc1c(Cl)cccc1NS(=O)(=O)c1cccc2nsnc12	11	4156	-8	17	-6	11	0
CSc1nc(-c2ccccc2)nn1S(=O)(=O)c1ccc(Cl)cc1	-1.7	10605	-8	-13	-5	0	-6
Oc1ccc(Cl)cc1CNCc1ccc(Cl)cc1	5.4	3453	-12	-27	.	17	22
CCCN(C(=O)CSCc1c(C)noc1C)c1c(N)n(Cc2ccccc2)c(=O)[nH]c1=O	-1.5	6145	1	-11	-2	5	0
CCN1C(=NCC2CC2)N[C@@H](c2cccc(C(F)(F)F)c2)C(C(=O)OC)=C1C	11	4173	-13	3	13	-8	10
O=C(CN1C(=O)NC2(CCCCCCC2)C1=O)Nc1cccc(Br)c1	-3.7	6523	-15	-19	.	0	1
O=C(Nc1ccc(OC(=O)N2CCCC2)cc1)N1CCOCC1	3.1	10762	9	0	9	3	7
COc1ccc(C2NC(=O)N(C)C3=C2C(=O)CC(C)(C)C3)cc1OC (stereo not drawn)	2.5	2584	16	-11	-1	10	8
CCOCCCNS(=O)(=O)c1ccc2c(c1)CCN2C(C)=O	-2.4	3752	2	-21	-13	.	.
O=C(NC(=S)Nc1ccccn1)c1ccccc1	.	3767	.	-53	5	.	.
Cn1cccc1/C=C1\SC(=S)N(NC(=O)c2cccc(Cl)c2)C1=O	7.9	2151	-18	-21	.	8	6
C=CC[C@H](CC(=O)N(CCO)Cc1ccccc1)C(=O)NCCOC(=O)[C@H](CC=C)CC(=O)OC(C)(C)C	2.0	3809	2	-21	.	-7	-4
Cc1ccc(S(C)(=O)=N/C=C2\C(=O)c3sccc3N(C)S2(=O)=O)cc1 (stereo not drawn)	2.2	4084	5	-50	-2	1	-7
Nc1nonc1-c1nc2ccccc2n1CC(=O)O	5.4	12779	11	-17	5	7	12
O=C(Cc1ccccc1F)NCC(c1ccco1)N1CCCCC1 (stereo not drawn)	3.6	2890	2	-24	4	12	0
C/C=C/C=C/C(=O)N1CC2(CC(c3cccc(NC(=O)/C=C/C)c3)=NO2)C[C@@H]1C(N)=O (stereo partly drawn)	.	3957	.	-19	14	.	.
CCOC(=O)c1ncn2c1C1CCNC1C(=O)c1cc(OC)ccc1-2 (stereo not drawn)	1.7	.	-4	.	.	3	13
O=Nc1[nH]c(=O)c(/C=C(\O)c2ccccc2)nc1NO	8.5	3126	8	-39	4	12	-3
COc1ccc(NC(=O)/C=C/c2ccc(F)cc2)cn1	4.0	2188	10	-98	-2	1	-7
CCOc1ccc(C(=O)Nc2ccc3c(c2)OCCO3)cc1	1.9	3700	8	-27	-6	1	-6
CCCOC(=O)C(C)=NNC(=O)c1ccco1	2.1	.	-4	.	.	1	-3
COc1cc(C(=O)Nc2cccc(-c3nc4cc(C)ccc4o3)c2C)cc(OC)c1OC	5.1	3042	-8	-12	1	6	6
O=C(OCC(=O)N1CCOCC1)c1cc(S(=O)(=O)N2CCOCC2)c(Cl)cc1Cl	5.4	3086	8	-9	.	8	-3
O=C(NN=Cc1ccsc1)c1ccc2c(c1)OCO2	-2.8	.	-5	.	.	4	13
O=C(Nc1cc(Cl)ccc1N1CCOCC1)C1=COCCO1	2.2	4094	-2	-10	-5	6	0
CC1CCCCC1NC(=O)CN1CCC(NC(=O)c2cccc(F)c2)CC1 (stereo not drawn)	-1.4	3837	0	14	1	-4	12
Cc1[nH]c2ccccc2c1/C=N/NC(=O)CNC(=O)c1ccccc1	.	5896	.	-16	-1	.	.
CCCCN1C(N)=NC[C@H]1Cc1ccc(O)cc1	.	4571	.	-14	-2	.	.
Cc1ccc(NC(=O)C2CCN(S(=O)(=O)c3cccnc3)CC2)cc1C	2.6	5296	1	-15	-3	-6	3
Cc1cc(C(=O)N2CC(C)CC(C)C2)n(-c2ccccc2)n1 (stereo not drawn)	1.7	5314	7	-15	12	4	5
CCc1ccc(CCC(=O)Nc2sc3c(c2C#N)CCCC3)o1	9.6	10650	-8	-68	1	10	7
COc1ccccc1N1CCN(N=Cc2ccccc2)CC1	2.3	.	3	.	.	5	6
CCn1c(NC)cc(=O)n(C)c1=O	3.6	4655	5	-9	4	1	2
O=C(N/N=C/c1ccc(F)cc1)c1cccc(NC(=O)c2ccccc2Cl)c1	.	3598	.	-24	-6	.	.
CC(=NNC(=O)CCC(=O)Nc1ccccc1)c1cccs1	2.5	.	-2	.	.	4	6
Cc1cc(NS(=O)(=O)c2ccc3c(c2)OCCO3)no1	4.5	3597	9	-10	-1	0	-1
CCCc1cc(=O)oc2cc(OC(C)C(=O)NCCCn3ccnc3)ccc12 (stereo not drawn)	3.0	4946	9	0	9	9	9
CCCCN(CCCNC(=O)c1ccc(CS(=O)(=O)c2c(Cl)cccc2Cl)o1)Cc1ccccc1	1.7	5894	0	-11	5	12	0
O=C(CSc1nnc(NC(=O)Cc2ccccc2)s1)NCc1ccco1	3.2	3211	-65	-25	2	9	1
O=C(CSc1nnc(Nc2ccccc2F)s1)NCc1ccco1	-20	2295	-9	-4	.	3	2
CCCCn1c(N)c(N(CCC(C)C)C(=O)c2ccccc2C)c(=O)[nH]c1=O	2.5	4009	13	-14	-8	10	6

(next part)
SMILES	Sa RN4220 lethal	Autofluor counter	ugtP null kill	PrP 5UTR inh	BJeLR lethal	Mtb hypoxia rep	Mtb hypoxia rep growth
Cc1cccc(C(=O)c2ccccc2C(=O)O)c1	3.1	4322	-1	-5	7	9	8
O=c1ccc(-c2n[nH]c(=S)n2-c2ccc(F)c(Cl)c2)n[nH]1	3.7	4025	4	-3	-2	7	4
Cc1cc(C)c(S(=O)(=O)NCCCN2CCOCC2)cc1Br	6.9	9066	2	-42	7	19	7
CC1(C)C2CCC1(CS(=O)(=O)NCc1ccc(S(N)(=O)=O)cc1)C(=O)C2 (stereo not drawn)	4.0	5667	0	-4	-2	6	2
CC(C)NC(=O)NC(=O)COC(=O)c1ccc(NC(=O)CC#N)cc1	1.7	3467	3	-4	-3	10	11
COc1ccccc1C1=NCc2nnc(CSC)n2-c2ccc(Cl)cc21	4.9	4433	4	-14	-13	6	0
O=C(O)CCC(=O)Nc1cccc2cccnc12	2.9	4442	2	-14	1	5	3
Cc1cc(SCC(=O)N2CCCC2=O)nc2c(C)cccc12	2.3	?	3	-1	-1	7	6
O=C(CCSCc1ccccc1F)N1CCN(c2ccccn2)CC1	5.6	9635	5	-37	4	3	1
O=C(Nc1ccn(Cc2c(F)c(F)c(F)c(F)c2F)n1)c1ccc(COc2ccccc2Cl)cc1	-0.4	25404*	-23	1	-2	4	-2
Cc1ccc(S(=O)(=O)N2CCC(C(=O)NCc3cccnc3)CC2)cc1	-0.6	9370	0	10	2	-1	7
CCC(C)NC(=O)C1CCN(C(=O)c2ccccc2)CC1 (stereo not drawn)	7.5	8543	13	-23	.	1	-6
O=C(/C=C/c1ccc(Cl)cc1)NCc1ccncc1	-1.1	7504	11	-3	0	13	2
Cc1cccc(C)c1OCC(=O)Nc1ccccc1C(F)(F)F	20	3847	20	-29	-3	-4	0
COc1ccc(NC(=O)CN(C)S(=O)(=O)c2ccc3c(c2)CC(C)N3C(C)=O)c(OC)c1 (stereo not drawn)	3.4	5945	8	-11	-5	-2	1
Cc1ccc(NC(=O)CCn2cnc3ccccc3c2=O)cc1	0.7	4143	3	-23	-1	3	7
CCOC(=O)c1[nH]c2ccc(OC)cc2c1NC(=O)CCN1CCSCC1	2.4	2109	2	-18	-14	-3	1
O=C(OC1C(Cc2ccccc2)NS(=O)(=O)C2CC3C=C[C@]12O3)c1ccccc1Br (stereo partly drawn)	7.0	.	-8	.	.	-2	4
CC(C)(C)n1nnnc1C(c1cccnc1)N(Cc1ccccc1)Cc1ccco1 (stereo not drawn)	-7.7	2533	-8	1	6	-8	8
CCN(CC)S(=O)(=O)c1ccc(NN=C(C)c2ccncc2)c([N+](=O)[O-])c1	3.7	.	7	.	.	4	-1
CC(C)(Oc1ccc(Cl)cc1)C(=O)OCC(=O)Nc1ncc(Cl)cc1Cl	6.6	22776*	-4	-11	-1	-1	-5
CCOc1nc(C)cc(C)c1S(=O)(=O)c1cccc(Cl)c1	13	3611	1	-10	-7	3	12
CCC(C)C(NC(=O)C1CCC(C)CC1)C(=O)Nc1ccc(OC)cc1OC (stereo not drawn)	0.7	4365	-9	-23	-8	-18	-8
C/C(CCc1ccc2c(c1)OCO2)=N\NC(=S)NC(C)C	.	4509	.	-69	-11	.	.
CCOC(=O)C[C@H]1c2cc(F)ccc2S(=O)(=O)N1c1cccc(OC)c1	.	3322	.	3	9	.	.
CSc1ccc(/C=N/NC(=O)c2cccs2)cc1	.	3499	.	-141	-11	.	.
CCc1noc(C)c1C(=O)NC1CCCc2c1cnn2-c1ccc(C(C)(C)C)cc1 (stereo not drawn)	-5.8	5941	-9	0	-1	-9	-4
